Bioassay records: PubChem, ICCB-Longwood Screening Facility, Harvard Medical School
CapD inh = Bacillus anthracis CapD inhibitors, primary screen, biochemical, fluorescence intensity | purified CapD enzyme, fluorescence intensity read-out; stronger effect = lower value; some hits fall short of the stated cut | z-score (concentration not given with the values) | 0.23% of 140,000 active | AID 492967, 2010;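 active = z-score under -4 in either of two replicates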;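 note: stock transfer was 100 nL into about 40 µL; score is relative to mean and spread of the plate; one replicate is shown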
AID504770 = growth inhibition of E. coli YBA685, primary screen, V. cholerae RctB inhibitors | E. coli YBA685 rctB-dependent plasmid, OD600 growth, 3 h; stronger effect = lower value | z-score (test concentration not listed) | 0.27% of 130,000 active | AID 504770, 2011;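 active = z-score under -2 on both plates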;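 note: wells of about 30 µL received 100 nL stock; score is relative to mean and SD of the test wells; the first replicate is given; strong numbers were not always called active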
Numbers without * were called inactive; · = no result given; & = joins results of further samples. An excerpt; rates above refer to the full screens.

1) Cc1cccc(C)c1NC(=O)C1CCCCN1C (stereo unspecified)
2) CCCCCCc1ccc(O)cc1O
3) CCCCC1C(=O)N(c2ccccc2)N(c2ccccc2)C1=O
4) C#C[C@]1(O)CCC2C3CCC4=CC(=O)CC[C@@H]4C3CC[C@@]21CC (stereo partly specified)
5) C=C1c2cccc(O)c2C(O)=C2C(=O)[C@]3(O)C(O)=C(C(N)=O)C(=O)[C@@H](N(C)C)[C@@H]3[C@@H](O)[C@H]12
6) COc1ccccc1OCCNCC(O)COc1cccc2[nH]c3ccccc3c12 (stereo unspecified)
7) CC(=O)Nc1ccc(O)cc1
8) CC(=O)Nc1ccccc1

Screen / compound no.	1	2	3	4	5	6	7	8
AID504770	0.15	0.3	0.15	0.1	-3.4*	0.45	1	0.3
CapD inh	·	-0.01	1.2	0.12	-0.36&2.1	·	0.48&-0.58	-0.025

Gathered by group: those above with a carbonyl joined to an NH by a bond outside any ring (4)
1) Cc1cccc(C)c1NC(=O)C1CCCCN1C (stereo unspecified)
5) C=C1c2cccc(O)c2C(O)=C2C(=O)[C@]3(O)C(O)=C(C(N)=O)C(=O)[C@@H](N(C)C)[C@@H]3[C@@H](O)[C@H]12
7) CC(=O)Nc1ccc(O)cc1
8) CC(=O)Nc1ccccc1

Screen / compound no.	1	5	7	8
AID504770	0.15	-3.4*	1	0.3
CapD inh	·	-0.36&2.1	0.48&-0.58	-0.025

Following part.
9) Cn1c(=O)c2c(ncn2CCO)n(C)c1=O
10) Nc1c2ccccc2nc2ccccc12 (tested in a mixture with another compound)
11) COc1ccc(/C=C/C(=O)O)cc1
12) NC(N)=NC(=O)Cc1c(Cl)cccc1Cl
13) CCOc1cc2c3c(c1)c(C1=NC(=S)NC1=O)c(O)n3C(C)(C)CC2C (stereo unspecified)
14) O=C(O)CNC(=O)c1ccccc1
15) O=C1CSC(c2ccc3cccc(O)c3n2)N1c1ccc(Cl)cc1 (stereo unspecified)
16) COc1ccc2c(c1)N(C(=O)c1sc3ccccc3c1Cl)C(C)(C)c1ssc(=S)c1-2

Screen / compound no.	9	10	11	12	13	14	15	16
AID504770	-0.1	0.1	0.7	·	-0.5	2	-0.05	·
CapD inh	0.27&0.45&0.54	·	·	-0.38	-0.51	1	-0.41	-0.12

17) Cc1cc(=O)n(-c2ccccc2)[nH]1
18) CCCCOc1ccc(CC(=O)NO)cc1
19) CCOC(=O)NNc1nncc2ccccc12
20) O=C(O)/C=C/c1ccc(O)cc1
21) CCc1c2c(nc3ccc(OC(=O)N4CCC(N5CCCCC5)CC4)cc13)-c1cc3c(c(=O)n1C2)COC(=O)[C@]3(O)CC
22) CCCCCC(=O)O[C@]1(C(C)=O)CCC2C3CCC4=CC(=O)CC[C@]4(C)C3CC[C@@]21C (stereo partly specified)
23) CCC(=O)O[C@]1(C(=O)SCF)[C@H](C)C[C@H]2[C@@H]3C[C@H](F)C4=CC(=O)C=C[C@]4(C)[C@@]3(F)[C@@H](O)C[C@@]21C
24) CC(=O)Nc1ncc([N+](=O)[O-])s1

Screen / compound no.	17	18	19	20	21	22	23	24
AID504770	0.6	0.25	-0.45	-0.75	0	0.2	·	·
CapD inh	-0.13	-1.7&1.7	0.065&-0.25	0.34	·	1	-0.46	-2.3

Copied from above for reference:
21) CCc1c2c(nc3ccc(OC(=O)N4CCC(N5CCCCC5)CC4)cc13)-c1cc3c(c(=O)n1C2)COC(=O)[C@]3(O)CC
22) CCCCCC(=O)O[C@]1(C(C)=O)CCC2C3CCC4=CC(=O)CC[C@]4(C)C3CC[C@@]21C (stereo partly specified)
23) CCC(=O)O[C@]1(C(=O)SCF)[C@H](C)C[C@H]2[C@@H]3C[C@H](F)C4=CC(=O)C=C[C@]4(C)[C@@]3(F)[C@@H](O)C[C@@]21C
24) CC(=O)Nc1ncc([N+](=O)[O-])s1

Screen / compound no.	21	22	23	24
AID504770	0	0.2	·	·
CapD inh	·	1	-0.46	-2.3

(more compounds)
25) Nc1c2c(nc3ccccc13)CCCC2O (stereo unspecified)
26) COc1cc([C@H]2Oc3cc([C@H]4Oc5cc(O)cc(O)c5C(=O)[C@@H]4O)ccc3O[C@@H]2CO)ccc1O
27) Cc1cc(C)cc(OCC2CNC(=O)O2)c1 (stereo unspecified)
28) CNc1c2c(nn1C)CCCC2
29) O=C(O)C1[C@H]2C[C@H]3c4[nH]c5ccccc5c4CCN3C[C@@H]2CC[C@@H]1O (stereo partly specified)
30) CC(=O)N1CC(O)C[C@H]1C(=O)O (stereo partly specified)
31) CC(=O)Nc1ccc(S(=O)(=O)Nc2cc(C)on2)cc1
32) CCn1cc(C(=O)O)c(=O)c2cc(F)c(N3CCNCC3)nc21
33) Nc1ncnc2nc[nH]c12

Screen / compound no.	25	26	27	28	29	30	31	32	33
AID504770	·	0.9	0.05	-0.9	-0.55	1.6	·	-3.5*	-0.45
CapD inh	-0.41	·	·	0.05	2.5	0.6	0.69	0.26&0	·
